Source: PubChem BioAssay
TRPV1 potentiator – potentiators of human vanilloid receptor 1 (TRPV1) | Q8NER1 | TRPV1-expressing cells, Fluo-8 calcium influx, capsaicin EC20 potentiation; host cell line not named in the record; control for the full effect not named in the record | potentiation, % at 8.33 µM | 0.02% of 320,000 active; active means potentiation above 80%; inconclusive means 30% to 80%; inactive means below 30%; note: 0% is about no effect
Target sequence (Q8NER1 whole entry, looked up): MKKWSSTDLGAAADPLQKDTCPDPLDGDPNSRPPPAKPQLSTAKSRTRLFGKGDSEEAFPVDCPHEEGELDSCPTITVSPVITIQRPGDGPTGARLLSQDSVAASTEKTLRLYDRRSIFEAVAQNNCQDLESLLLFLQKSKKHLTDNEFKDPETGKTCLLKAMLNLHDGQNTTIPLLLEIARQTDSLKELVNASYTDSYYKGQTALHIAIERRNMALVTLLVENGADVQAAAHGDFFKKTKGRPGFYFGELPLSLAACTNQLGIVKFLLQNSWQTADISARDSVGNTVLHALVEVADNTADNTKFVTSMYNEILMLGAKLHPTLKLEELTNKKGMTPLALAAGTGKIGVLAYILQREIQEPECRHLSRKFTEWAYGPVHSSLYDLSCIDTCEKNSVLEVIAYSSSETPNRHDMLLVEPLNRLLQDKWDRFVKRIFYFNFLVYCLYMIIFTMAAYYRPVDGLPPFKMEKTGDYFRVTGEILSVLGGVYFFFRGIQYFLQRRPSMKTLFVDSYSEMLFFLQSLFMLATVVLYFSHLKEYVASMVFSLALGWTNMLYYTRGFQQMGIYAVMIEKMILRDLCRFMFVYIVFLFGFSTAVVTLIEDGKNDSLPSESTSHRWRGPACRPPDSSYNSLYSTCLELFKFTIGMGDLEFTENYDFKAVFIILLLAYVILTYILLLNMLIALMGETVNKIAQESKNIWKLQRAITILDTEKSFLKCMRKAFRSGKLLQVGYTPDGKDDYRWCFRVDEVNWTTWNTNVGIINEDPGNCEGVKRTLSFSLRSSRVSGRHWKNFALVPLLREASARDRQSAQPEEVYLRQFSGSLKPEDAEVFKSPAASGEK
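Fluo-8 calcium influx in TRPV1-expressing cells, kinetic read (ex 480/em 520 nm). Compound added and read 3 min for agonist activity, followed by capsaicin at EC20 final and 2 min further read for enhancement.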
D2 potentiator – potentiates the human D2 dopamine receptor allosterically | 0.23% of 360,000 active | AID 624464 | potentiation, % (test concentration not listed) | DiscoveRx D2 beta-arrestin cells, luminescence, 90 min; 100% = 57 uM dopamine signal | P14416; active = potentiation of 50% or more; inconclusive = 30% to 50%; inactive = 30% or less;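 note: compound concentration not given in the record; tested on top of an EC20 dose of dopamine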
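PathHunter D2 cells, attached overnight at 37 deg C, received compound in DMSO plus dopamine at EC20 (50 nM final) for 90 min at 37 deg C. Beta-arrestin recruitment was read as luminescence after 1 h with detection reagent at ambient temperature.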
PINK1 expr mod – modulators of PINK1 expression. PINK1 immunofluorescence, high-content cytometry, 24 h. Potency, µM (top dose mostly 76.6 µM), for inactives: at the top dose activation (PINK1 increase), usual class: activators. 0.2% of 410,000 active; active = well fitted activation curve with a large enough effect; inconclusive = small, poorly fitted or top-dose-only effect; inactive = flat fitted curve, though single readings scatter; cell line not stated here;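 note: potency is the fitted concentration of half-maximal effect; % of control where 0% means no effect; nearly all actives have a fitted effect of over 65% in size; a mitochondrial uncoupler was the plate control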
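Measures PINK1 amount and localization on or inside mitochondria by immunofluorescence. Stable cells get compounds at 5 concentrations for 24 hours before fixation and staining; CCCP controls included.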
Six1-Eya2 blk – blocks human Six1 binding to Eya2 | activity change, % (concentration not given with the values) | 0.56% of 360,000 active | Q15475+O00167 | AlphaScreen GST-Six1/His-Eya2 binding, biochemical; hits give low values; control for the full effect not named in the record | AID 651725; in the data active = activity change below about -65%; inconclusive = about -30% to -65%; inactive = above about -30%; note: % is set by controls: 0 for no effect and ±100 for the full control effect
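Compounds are tested against tagged Six1 and Eya2 proteins bridged by glutathione donor and nickel acceptor beads; after a one-hour incubation at 37 °C without light, AlphaScreen emission is recorded.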
CtBP-E1A blk – inhibitors of CtBP/E1A interaction. AlphaScreen GST-E1A/His-CtBP binding, 1536-well; hits give low values; control for the full effect not named in the record. activity change, % (no concentration beside the values). 0.49% of 340,000 active. AID 651724; in the data active means activity change below about -65%; inconclusive means about -30% to -65%; inactive means above about -30%; note: % is set by controls: 0 for no effect and ±100 for the full control effect; compound concentration not given in the record
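Steps: dispense buffer (Tris pH 8.0, NaCl 300 mM, TCEP 1 mM, BSA, Tween 20); add 5X protein mix (GST-E1A, His-CtBP, 125 nM each); pin 23 nL compound; 2 h at 37 °C, dark; add 5X beads (50 ug/mL); 1 h; read.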
D2 agonist – human D2 receptor agonism in beta-arrestin assay. P14416. DiscoveRx PathHunter D2 beta-arrestin, luminescence, 90 min; 100% = 57 uM dopamine signal. activation, % (test concentration not listed). 0.084% of 360,000 active. AID 624465; in the data active = activation above about 40%; inconclusive = about 15% to 40%; inactive = below about 15%; note: compound concentration not given in the record; the text of the record calls up to 30% inactive
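Agonist mode: compounds alone added to overnight-plated D2 PathHunter cells for 90 min at 37 C, with 57 uM final dopamine (EC100) defining full response. Beta-arrestin recruitment detected by chemiluminescent reagent, read after 1 h at ambient temperature.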
Sfp PPTase inh – inhibitors of Bacillus subtilis Sfp phosphopantetheinyl transferase. Potency, µM, for the others: max response, negative = inhibition, usual class: inhibitors. Biochemical Sfp PPTase activity, qHTS. Q9F4F7. 3.5% of 310,000 active; active = well fitted inhibition curve with a large enough effect; inconclusive = small, poorly fitted or top-dose-only effect, or another doubt; inactive = no such curve, though single readings can be large or run the other way;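 note: the enzyme is Sfp with the accession as filed and its product quenches rhodamine fluorescence; potency is the fitted concentration of half-maximal effect; 0% = enzyme reaction without inhibitor and -100% = no enzyme wells; top concentration of the series not given in the record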
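Sfp 15 nM + cpd, 15 min RT; start w/ rhodamine-CoA 5 uM, BHQ-2-YbbR 12.5 uM (final); 50 mM Hepes pH 7.6, 10 mM MgCl2, 0.01% NP-40, 0.01% BSA; read 525/598 nm at 0 and 30 min.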
Numbers without * were called inactive; ? = inconclusive; · = no result given; & = joins results of further samples; [ ] = another dose, or the depositor's remark.

nr | SMILES | TRPV1 potentiator | D2 potentiator | PINK1 expr mod | Six1-Eya2 blk | CtBP-E1A blk | D2 agonist | Sfp PPTase inh
1 | Cc1ccc(NC(=O)CSc2ccc(-c3ccc4c(c3)OCO4)nn2)cc1F | -16.8 | -4.8 | 17.9% | 19.8 | 1.8 | -7.2 | -10.0%
2 | CCn1ncc(Cl)c1C(=O)Nc1cc(Cl)ccc1Cl | 10.2 | -8.7 | 2.5%[38.3 µM] | 32.1 | 38.2 | -2.5 | -19.8%
3 | Cc1nc2ncnn2c(N2CCN(S(=O)(=O)c3ccc(Br)cc3)CC2)c1C | 6.6 | -3.0 | -0.5% | 0.7 | 0.0 | -10.8 | 21.7%
4 | CC(C)Cc1nc2oc3c(Cl)ncnc3c2c2c1CCCC2 | -16.6 | -10.7 | -1.2% | 10.8 | 3.9 | -2.7 | -14.7%
5 | Nn1c(COc2ccccc2)nnc1SCC(=O)O | -2.9 | 1.3 | -1.5% | -0.7 | -5.0 | 0.2 | 20.1%
6 | C=CCn1c(Cc2ccc(OC)cc2)nnc1SCC(=O)c1cccc([N+](=O)[O-])c1 | -17.5 | 16.4 | · | -6.8 | -4.1 | 4.0 | -15.3%
7 | CCOc1ccc(CCN2C(=O)C(=O)N([C@@H](Cc3ccc(O)cc3)CN3CCC[C@H]3CN3C(=O)C(=O)NC[C@@H]3Cc3ccc(O)cc3)C[C@@H]2Cc2ccccc2)cc1 | · | · | 1.3% | 0.1 | -0.4 | · | ·
8 | COc1ccc(C(=O)N2CCN(S(=O)(=O)c3ccc(F)cc3)CC2)cc1OC | 5.2 | -2.2 | -0.5% | -4.3 | · | 7.3 | -5.9%
9 | CCn1c(-c2ccccc2)c(C(=O)O)c2ccccc21 | 1.0 | -3.8 | -1.2% | -12.5 | 1.6 | -1.8 | -4.1%
10 | CSc1ccc(-c2nnn(Cc3ccccn3)n2)cc1 | -7.1 | -10.7 | 1.8% | 4.9 | 11.8 | 1.6 | 16.9%
11 | CN(CC(=O)Nc1ccc(F)cc1)CC(=O)N1CCc2ccccc21 | 5.9 | -5.9 | 1.2% | -4.1 | 2.0 | 1.4 | ·
12 | CCCn1c2ccccc2c2nnc(SCC(=O)OCC)nc21 | -8.4 | -8.0 | -2.5% | 7.2 | -6.4 | -0.4 | 2.1%
13 | O=C1NC[C@H](Cc2ccc(O)cc2)N(CCc2cccc(F)c2)C1=O | · | · | -0.9% | -2.7 | -1.3 | · | ·
14 | NCCCC(N)(C(=O)O)C(F)F (stereo not given) | -29.3 | 7.8 | 1.8% | 3.6 | 8.0 | -5.7 | -8.1%&-15.4%
15 | COC(=O)c1ccc(N2CCN(c3ccccc3)CC2)c(NC(=O)C2CC2)c1 | -21.0 | -14.5 | 4.1% | 8.6 | 5.7 | -1.6 | 23.4%
16 | CCn1cc(C(=O)NCCCN2CCC(C)CC2)c(=O)c2cc(S(=O)(=O)N3CCOCC3)ccc21 | -10.0 | -27.2 | 0.0% | 2.8 | -5.1 | -5.8 | 6.4%
17 | CCc1nc2ccccc2n(CCOCCn2c(=O)c(CC)nc3ccccc32)c1=O | -8.6 | -18.5 | 10µM* | 4.2 | -5.0 | 0.6 | 12.7%
18 | CCCn1cnnc1CNC(=O)[C@H]1O[C@@H](n2ccc(N)nc2=O)[C@H](O)[C@@H]1O | · | · | 0.0% | -2.5 | 6.7 | · | ·
19 | Cc1ccc(NC(=O)c2cnc(SCC(=O)c3ccccc3)n(C)c2=O)cc1 | 15.7 | -6.6 | 1.2% | 7.7 | -17.3 | 3.4 | ·
20 | CCCCOc1ccc(N2C(=O)C(C)CNC2=S)cc1 (stereo not given) | · | -14.1 | -2.7% | 5.8 | 0.0 | 0.4 | ·
21 | COc1cccc(SCC(=O)N2CCN(c3ccccc3)CC2)c1 | -5.0 | -9.3 | -1.1% | -6.1 | 0.5 | -3.7 | 11.7%
22 | CCOC(=O)CCCc1c[nH]c2ccccc12 | -7.0 | 1.9 | -2.2%[38.3 µM] | -4.0 | -3.8 | -2.1 | 17.9%
23 | O=C(Cn1nc(Cc2cccnc2)c2ccccc2c1=O)N1CCN(C(=O)c2ccco2)CC1 | 21.9 | 1.3 | 0.4% | -0.6 | 3.8 | -2.5 | 11.4%
24 | Cc1cccc(C)c1-n1c(C)cc(/C=N\NC(=O)CC(=O)NC2CCCCC2)c1C | 5.8 | -4.8 | 3.5% | -12.4 | 0.2 | -2.0 | -6.1%
25 | Cc1ccccc1-n1c(SCC(=O)N2CCN(c3ccccc3)CC2)nnc1-c1ccncc1 | -10.0 | -2.4 | ? | -2.0 | -6.2 | -1.1 | -8.8%
26 | CC1(C)O[C@@H]2[C@H](O1)[C@@H](COS(=O)(=O)O)O[C@H]2n1ccc(=O)[nH]c1=O | -8.7 | -10.3 | -1.0% | 1.8 | 4.3 | -0.1 | ·
27 | O=C(CSCC(=O)N1CCOCC1)Nc1nc(-c2ccc3c(c2)OCO3)cs1 | · | -4.9 | 0.8% | -20.9 | ? | -4.6 | 1.8%
28 | CN(C(=O)c1cccc(NC(=O)Cc2ccc(NC(=O)C3CCCN(C(=O)CCc4ccccc4)C3)cc2)c1)C1CCCC1 (stereo not given) | · | 2.9 | -0.3% | -7.1 | -6.9 | 0.8 | ·
29 | CCCCNC(=O)c1ccc(CS(=O)(=O)c2ccc(C)cc2)o1 | -1.4 | -3.8 | 0.8% | 4.5 | 7.0 | 0.1 | 0.8%
30 | CCOC(=O)c1[nH]c2ccccc2c1NC(=S)Nc1ccccc1 | 5.8 | 13.0 | 0.8% | -9.2 | 1.2 | ? | ?
31 | Cn1cccc1CC(=O)N/N=C/c1cccc2ccccc12 | 12.1 | -35.6 | -0.6% | -9.5 | 16.0 | -3.4 | -9.7%
32 | CCN(CC)CCN(C(=O)c1ccc(C(=O)c2ccccc2)cc1)c1nc2cc3c(cc2s1)OCO3 | -2.3 | -19.6 | 1.2% | -17.8 | -16.4 | -2.9 | -9.6%
33 | COc1ccc(CN2CCN(CC=C(C)C)C(CCO)C2)cc1Cn1cncn1 (stereo not given) | 14.2 | -18.6 | -1.9% | -0.3 | -19.3 | -3.7 | 11.9%
34 | Cc1ccc(S(=O)(=O)N(C)/N=C/C=C/c2ccccc2)cc1 | 2.6 | -10.3 | -2.3% | 2.4 | -4.5 | 0.1 | 2.5%
35 | CCN(CC(=O)NCc1ccc(F)cc1)C(=O)COc1ccccc1[N+](=O)[O-] | · | -3.5 | -0.3% | -2.2 | 8.0 | -2.3 | ·
36 | CCOC(=O)C1CCN(C(=O)c2cc3cc(C)ccc3[nH]2)CC1 | 2.6 | -14.8 | -0.2% | 6.5 | · | 0.3 | 8.8%
37 | CCc1nc2c(OCc3ccc(C#N)cc3)cccn2c1N(C)C(=O)c1ccco1 | · | -3.7 | 1.0% | -5.3 | 0.9 | 2.3 | ·
38 | CN(C(=O)COC(=O)c1sc2ccccc2c1Cl)C1CCCCC1 | -1.4 | -15.2 | 0.5% | 15.7 | 0.4 | 1.7 | -17.4%
39 | O=c1n(Cc2ccccc2)c2cc(Cl)cnc2n1Cc1ccccc1 | 6.4 | -16.4 | 1.3% | 4.3 | 10.8 | -5.8 | -16.7%
40 | CC(=O)c1cccc(N(C(=O)CS(=O)CC(=O)Nc2ccc(F)cc2)C(C(=O)NC2CCCCC2)c2ccc(C)o2)c1 (stereo not given) | 1.7 | -4.7 | 1.9% | 12.9 | 17.8 | -0.9 | 8.1%
41 | COC(=O)c1cn(NC(=O)Cc2cccc(C(F)(F)F)c2)c(=O)c2ccccc12 | 1.0 | -2.4 | 5.3% | 0.0 | 0.5 | -2.7 | 16.3%
42 | CCOc1cc(C(=O)Nc2cc(C)ccn2)cc(OCC)c1OCC | -21.2 | -5.8 | 0.6% | -0.9 | 5.4 | -2.7 | -3.1%
43 | COc1ccc(C(=O)/C=C/c2cc(C(=O)O)cc3c2OCOC3)c(O)c1 | 2.0 | -5.1 | 8.6% | -2.0 | -0.2 | -3.1 | -16.8%
44 | CC(=O)Nc1ccc(S(=O)(=O)NCC(CCC(=O)O)C(F)(F)F)cc1 (stereo not given) | 0.5 | -0.6 | 1.4% | 15.9 | 10.3 | -0.8 | -0.6%
45 | O=C1NC(Cc2ccccc2)c2nc3cc(F)ccc3c(=O)n2-c2ncccc21 (stereo not given) | · | 2.7 | 1.5% | 1.3 | 1.1 | -4.3 | ·
46 | CCN(CC)S(=O)(=O)c1ccc(N=Nc2c(N)[nH]c(=O)[nH]c2=O)cc1 | -1.7 | -1.1 | -0.4% | 5.4 | 1.9 | 1.8 | -7.5%
47 | CC(C)N(C)c1ncnc2c1ncn2[C@H]1CN(Cc2ccc(F)cc2)C[C@@H](CO)O1 | · | -9.9 | -0.8% | 0.0 | 10.2 | -1.7 | ·
48 | Cn1c(=O)n(C)c2cc(NC(=O)c3ccccc3)ccc21 | · | -7.3 | 0.9% | -26.2 | -9.9 | -0.6 | ·
49 | CCN1CCN(C(=O)c2ccc(CS(=O)(=O)Cc3ccccc3Cl)o2)CC1 | · | -17.0 | 0.1% | -0.3 | 4.3 | -1.0 | ·
50 | O=C(C1CC(Cl)CN1S(=O)(=O)c1ccc(Cl)cc1)N1CCOCC1 (stereo not given) | 4.6 | -6.8 | 0.0% | 6.2 | 18.1 | -1.4 | 10.1%
51 | Cc1cnc(C(=O)OCC(=O)c2cc(C)n(C)c2C)cn1 | 0.9 | -2.8 | 1.2% | -11.1 | 5.3 | -4.7 | -14.7%
52 | N#CC1C(=O)c2ccccc2C1c1ccccc1 (stereo not given) | · | -1.8 | -2.0% | -3.8 | 19.5 | -2.1 | ·
53 | CC(CNC(=O)c1ccc(N)cc1)NC(=O)c1ccc(N)cc1 (stereo not given) | 6.3 | 5.4 | 3.6% | 6.0 | -12.1 | -0.6 | 21.0%
54 | C/C(CC1(O)C(=O)N(Cc2ccccc2)c2ccccc21)=N\O (stereo not given) | 6.9 | -13.8 | -1.7% | 3.7 | 6.8 | -1.7 | 7.3%
55 | O=C(CN1CCN(c2ncccn2)CC1)Nc1ccccc1-n1cccc1 | -20.0 | -12.2 | · | -10.1 | -1.8 | 4.7 | 79.4µM*
56 | CCC(C(=O)NCCCN1CCCC1=O)n1c2ccccc2c2nc(=O)cc(C)n21 (stereo not given) | -13.7 | -11.4 | -1.1% | 0.5 | 6.0 | -6.1 | 14.8%
